UCH37 DUB inh: inhibitors of human deubiquitinating enzyme UCH37 | inhibition, % (test concentration not listed) | actives 0.33% (n = 330,000) | purified proteasome/UCH37, Ub-AMC cleavage fluorescence;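 active = mean of two replicates above 20%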;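 note: 0% = compound-free wells with enzyme and 100% = wells lacking proteasome; stock transfer was 100 nL into about 20 µL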
Target sequence (Q9Y5K5 whole entry, looked up): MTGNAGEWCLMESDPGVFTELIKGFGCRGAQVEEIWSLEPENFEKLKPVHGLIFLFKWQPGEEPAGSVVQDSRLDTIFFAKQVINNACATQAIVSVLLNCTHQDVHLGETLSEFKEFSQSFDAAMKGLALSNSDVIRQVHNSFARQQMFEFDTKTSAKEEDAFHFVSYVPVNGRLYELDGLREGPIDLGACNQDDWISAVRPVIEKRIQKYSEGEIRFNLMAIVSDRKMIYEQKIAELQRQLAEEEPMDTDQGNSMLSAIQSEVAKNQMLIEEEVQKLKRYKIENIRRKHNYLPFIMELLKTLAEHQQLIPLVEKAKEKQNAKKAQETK
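Material: human UCH37 enzyme supplied as purified proteasome complex. Measure: % inhibition of Ub-AMC cleavage fluorescence. Medium: pH 7.4 Tris-HCl (50 mM) with ovalbumin, ATP-MgCl2, DTT. Times: 30 min preincubation with enzyme, 25 min cleavage at room temperature. Detection: AMC fluorescence intensity at 355/460 nm.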
Ecoli growth: blocks Escherichia coli growth; OD600, 23 h; hits give low values; OD600 absorbance (concentration not given with the values); actives 0.21% (n = 330,000);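 active = OD600 absorbance below the run mean of sample wells minus 3.6 SD, in any replicate, cut at about 0.56 in these data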;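 note: stock transfer was 300 nL into about 60 µL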
HNF4A DNA FP: change in binding of human HNF4 alpha to DNA | HNF4a-FITC DNA binding, fluorescence polarization, 1 h | AID 1224865 | P41235 | activity change, % at 10 µM | actives 0.3% (n = 360,000); in the data active = activity change above about 30%, passing the limit was not always enough;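 note: controls were the assay level and a saturating level of protein; the project sought stronger binding though the title names inhibitors; some compounds called inactive have numbers as strong as hits; positive values seem to mean higher polarization but the record does not say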
FGF22 binding: shifts melting point of recombinant human FGF22; Q9HCT0; recombinant FGF22 thermal shift, SYPRO orange fluorescence; percent of sucrose octasulfate shift, DMSO zero; calls only at 9.99 µM; actives 1.5% (n = 340,000); AID 651658;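 active = melting point raised past a set limit in the mean and every replicate; inconclusive = no clear call; three in four hits are not shown here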
Target sequence (Q9HCT0 whole entry, looked up): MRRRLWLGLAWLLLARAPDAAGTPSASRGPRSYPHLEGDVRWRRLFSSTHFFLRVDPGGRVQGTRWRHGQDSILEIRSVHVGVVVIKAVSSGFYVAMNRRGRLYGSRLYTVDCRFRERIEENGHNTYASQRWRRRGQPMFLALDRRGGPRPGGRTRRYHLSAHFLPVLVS
B2AR ag: human beta-2 adrenergic receptor agonism by FAP | Am2.2-beta2AR cells, FAP receptor internalization, flow cytometry; reference of the scale not given here | AID 504454 | actives 0.43% (n = 340,000) | response, % (concentration not given with the values);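 active = response above a set limit, near 3 SD of response in nonfluorescent compounds, cut at about 42% in these data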;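 note: stock transfer was 100 nL into about 11 µL; a reference agonist was the positive control; negative values mostly stem from fluorescent compounds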
Target sequence (P07550 whole entry, looked up): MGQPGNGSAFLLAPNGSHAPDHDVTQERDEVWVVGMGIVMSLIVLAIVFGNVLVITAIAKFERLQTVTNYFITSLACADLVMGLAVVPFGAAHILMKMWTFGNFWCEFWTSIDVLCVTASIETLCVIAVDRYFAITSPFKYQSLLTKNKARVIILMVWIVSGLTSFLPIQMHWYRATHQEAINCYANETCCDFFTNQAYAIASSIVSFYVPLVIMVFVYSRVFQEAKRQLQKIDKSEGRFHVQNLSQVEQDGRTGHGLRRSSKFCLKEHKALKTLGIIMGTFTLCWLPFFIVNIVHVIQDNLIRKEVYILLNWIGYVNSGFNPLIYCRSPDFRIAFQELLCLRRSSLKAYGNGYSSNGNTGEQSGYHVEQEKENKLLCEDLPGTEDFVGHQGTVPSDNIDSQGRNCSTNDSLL
ALR H2O2 inh: inhibitors of human sulfhydryl oxidase ALR; P55789; purified ALR, DTT oxidation, H2O2 HRP-luminol luminescence; inhibition, % (no concentration beside the values); actives 3.8% (n = 290,000);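 active = mean and each replicate at 75% or more; inconclusive = only one of the two met; inactive = neither met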;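 note: stock transfer was 7.5 nL into about 7.5 µL; 0% = neutral wells and 100% = wells with inactivated enzyme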
Ecoli rRNA inh: inhibits bacterial ribosomal RNA function over humanized ribosomes. GFP signal change (wild-type ribosome), % (no concentration beside the values). actives 1.6% (n = 350,000). AID 720706. E. coli WT GFP vs humanized-ribosome RFP mutants, fluorescence, 24 h; hits give low values; DMSO median 0, no signal -100;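 active = significant combined selectivity score with lowered wild-type GFP, culture density cut under 30%, mutant RFP and density less affected; inactive = any of these conditions unmet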; note: one replicate is shown; some compounds called inactive have numbers as strong as hits
Ecoli rRNA inh OD600: recorded beside Ecoli rRNA inh, whose call it bears; OD600 change, %; measured here: OD600 growth;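 optical density of the mix in the first replicate; 0 = DMSO median and -100 = no signal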
Ecoli rRNA inh RFP: further read-out of Ecoli rRNA inh, marked with its call; RFP signal change, %; measured here: RFP humanized mutant strains;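 first replicate; 0 = DMSO median and -100 = no signal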
An asterisk follows results filed as active; i = inactive; ? = inconclusive; nt = no result given. Not all compounds are listed; the hit share may differ from the screen's.

SMILES	UCH37 DUB inh	Ecoli growth	HNF4A DNA FP	FGF22 binding	B2AR ag	ALR H2O2 inh	Ecoli rRNA inh	Ecoli rRNA inh OD600	Ecoli rRNA inh RFP
O=S(=O)(c1ccc(F)cc1)c1nc(-c2ccccc2F)oc1N1CCCCC1	0.4	0.661	1.4	nt	-5.2	-20.6	nt	nt	nt
CC1CCCCN1C(=O)c1cc(-c2ccc3c(c2)OCO3)on1 (stereo not drawn)	3.7	0.652	1.6	i	13.7	nt	-1.5	-30.2	-3.9
CC(C)NC(=O)CSCc1ccccc1Cl	2.1	0.72	-1.5	nt	-0.9	-242.1	nt	nt	nt
CCc1ccccc1NC(=O)CN1CCN(C(=O)CNC(=O)c2ccccc2F)CC1	2.8	0.658	0.9	i	-8.7	-3.4	3.9	4.0	-0.4
O=C1Nc2ccccc2C(O)(C(=O)NCc2ccc3c(c2)OCO3)N1c1ccccc1 (stereo not drawn)	2.1	0.69	1.9	nt	11.1	0.1	nt	nt	nt
Cc1cc(OCC(=O)NCC(c2ccc(F)cc2)N2CCOCC2)ccc1Cl (stereo not drawn)	0.0	0.699	1.5	i	1.5	-2.1	-9.2	-34.0	-5.5
O=C(CSc1nc2ccccc2c(=O)n1-c1ccccc1)c1c[nH]c2ccccc12	nt	nt	1.6	i	4.6	-2.0	21.6	18.0	3.6
CC(=O)C1=C(O)C(=O)N(CCN2CCOCC2)C1c1ccc(N(C)C)cc1 (stereo not drawn)	9.4	0.818	-1.0	nt	-3.7	-2.5	nt	nt	nt
OCC[C@@H]1C[C@@H](O)[C@H](O)[C@@]2(CCCO2)O1	4.1	0.803	2.2	i	-3.3	-4.1	10.6	18.5	-0.3
Cc1nn(Cc2ccc(C(=O)Nc3ccccc3C(F)(F)F)o2)c(C)c1Br	4.8	0.704	1.9	nt	-1.9	-1.2	nt	nt	nt
Cc1ccc2nc(C3CCCN(C(=S)Nc4ccccc4C)C3)[nH]c2c1 (stereo not drawn)	1.7	0.682	2.2	nt	17.3	-6.3	-13.2	-8.5	3.9
Cc1ccc(NC(=O)NC(=O)CN2C(=O)NC3(CCCCCCC3)C2=O)c(C)c1	3.8	0.668	-1.9	i	1.1	-1.0	10.4	-1.6	1.8
O=C(O)c1cc(-c2ccc(-c3c(-c4ccc5c(c4)OCO5)noc3-c3ccsc3)cc2)nc2ccccc12	7.7	0.812	-11.7	i	14.9	10.5	-12.4	4.3	30.2
Cc1ccc(NC(=O)CN(C)C(=O)COc2ccc(Br)cc2)cc1	nt	nt	1.0	i	nt	nt	-6.3	-11.4	1.9
Cc1ccc(OCc2ccc(C(=O)Nc3nc4ccccc4n3Cc3ccccc3)o2)c([N+](=O)[O-])c1	4.7	0.719	2.5	nt	-1.9	2.8	nt	nt	nt
Cn1c(=O)[nH]c(=O)c2c1nc1n2CCCN1CCc1ccccc1	0.2	0.751	-2.6	nt	4.4	16.7	nt	nt	nt
Cc1ccc2[nH]c(O)c(N=Nc3ccccc3[N+](=O)[O-])c2c1	nt	nt	-6.1	i	-28.9	nt	17.1	16.2	3.1
COc1ccc(S(=O)(=O)N2CCCCCC2)cc1C(=O)NCc1cccs1	-3.7	0.651	1.4	i	31.1	nt	-10.6	-17.2	-2.8
COc1ccc(C(NCC(=O)NC(C)c2ccc(Cl)cc2)c2ccccc2)cc1 (stereo not drawn)	3.6	0.672	4.7	i	9.8	-3.1	-19.9	-27.7	-2.4
O=C(CCCc1ccccc1)Nc1ccc(Br)cc1F	2.5	0.668	7.1	nt	-0.8	-10.3	nt	nt	nt
CCc1c(C)nc2ncnn2c1N1CCCC(C(=O)NCc2ccc3c(c2)OCO3)C1 (stereo not drawn)	3.3	0.74	-1.3	nt	-2.5	-15.4	nt	nt	nt
O=C(CS)Nc1ccc2ccccc2c1	nt	nt	-1.1	i	-1.0	97.1*	6.9	10.4	3.2
Clc1ccccc1CSc1nnc(-c2cccnc2)n1Cc1ccco1	0.7	0.644	3.3	nt	-5.3	5.6	nt	nt	nt
O=C(COC(=O)CCC(=O)c1cccs1)Nc1ccc(F)c(F)c1F	-0.6	0.663	-2.7	i	-0.1	nt	7.4	12.9	-1.3
O=C(CCNC(=O)c1ccc(Br)cc1)Nc1ccccc1N1CCOCC1	1.6	0.702	1.5	i	0.3	-3.7	3.0	7.2	2.7
CCN(CC)S(=O)(=O)c1cccc(-c2nnc(SCCOc3ccccc3C)o2)c1	0.3	0.705	2.3	nt	1.7	nt	nt	nt	nt
CCOC(=O)c1sc2nc(-c3ccco3)c3c(c2c1N)CC(C)(C)OC3	nt	nt	6.2	nt	-9.3	10.8	nt	nt	nt
CCN(CC)C(=O)C1CCC(CNS(=O)(=O)c2cccc3nsnc23)CC1 (stereo not drawn)	4.9	0.686	0.3	i	-2.1	-3.8	1.9	6.5	-2.1
O=C(C1CCCC1)N1CCN=C1SCc1cccc([N+](=O)[O-])c1	5.4	0.718	-1.0	i	-12.6	99.2*	0.8	10.4	-1.5
Cc1cc(C(=O)Nc2c(F)cc(F)cc2Br)no1	0.1	0.621	-0.4	nt	-0.9	-2.7	nt	nt	nt

Some of these compounds in order of count of non-hydrogen atoms, high to low:
SMILES	UCH37 DUB inh	Ecoli growth	HNF4A DNA FP	FGF22 binding	B2AR ag	ALR H2O2 inh	Ecoli rRNA inh	Ecoli rRNA inh OD600	Ecoli rRNA inh RFP
O=C1Nc2ccccc2C(O)(C(=O)NCc2ccc3c(c2)OCO3)N1c1ccccc1 (stereo not drawn)	2.1	0.69	1.9	nt	11.1	0.1	nt	nt	nt
Cc1ccc(NC(=O)NC(=O)CN2C(=O)NC3(CCCCCCC3)C2=O)c(C)c1	3.8	0.668	-1.9	i	1.1	-1.0	10.4	-1.6	1.8
Cn1c(=O)[nH]c(=O)c2c1nc1n2CCCN1CCc1ccccc1	0.2	0.751	-2.6	nt	4.4	16.7	nt	nt	nt

The results go on.
SMILES	UCH37 DUB inh	Ecoli growth	HNF4A DNA FP	FGF22 binding	B2AR ag	ALR H2O2 inh	Ecoli rRNA inh	Ecoli rRNA inh OD600	Ecoli rRNA inh RFP
COc1ccccc1C(=O)NCCCN1CCCC1=O	4.7	0.643	-0.7	i	-2.7	-2.1	16.4	16.9	-10.9
O=C(CSc1nc2ccccc2n1CCc1ccccc1)c1ccc(O)c(O)c1	4.3	0.713	-63.9	i	-7.0	nt	-50.8	-78.3	-31.5
Cc1cccc(NC(=S)Nc2ccccn2)c1	1.2	0.585	1.1	i	-2.2	-5.8	10.9	6.1	1.0
C=C(C)Cn1c(SCC(=O)O)nnc1-c1ccccc1	-1.6	0.729	0.7	nt	-3.0	-3.4	7.3	7.1	-1.9
COc1ccc(NC(C(=O)Nc2cccc(C(C)=O)c2)c2ccccc2)cc1 (stereo not drawn)	4.2	0.689	-0.9	nt	1.7	6.7	nt	nt	nt
COc1cccc(NC(=O)CCSc2nnc3scc(-c4ccccc4)n23)c1	-0.6	nt	-1.9	nt	-17.1	5.8	nt	nt	nt
Oc1ccccc1C=NNC(=S)NC1CC2C=CC1C2 (stereo not drawn)	-0.7	0.702	3.9	i	nt	nt	-57.3	-75.7	-18.5
COc1ccc(Cl)cc1NC(=O)C1CCN(S(C)(=O)=O)CC1	3.4	0.647	0.9	i	5.0	-5.5	2.7	1.6	-1.8
COc1ccc(N=Nc2ccc(O)c3ncccc23)cc1	7.2	0.698	-11.0	i	14.9	nt	11.6	-6.2	-2.4
CN(C(=O)c1ccc(S(=O)(=O)N(C)C)cc1)c1ccc2ccccc2c1	6.5	0.675	2.7	i	-8.0	-8.7	-5.4	-21.2	2.5
CCc1cc2c(=O)n(-c3ccc(Br)cc3)cnc2s1	2.4	0.739	0.6	nt	18.2	-12.9	nt	nt	nt
COc1cc(CNCc2ccccc2)c(Br)cc1OC1CCCC1	0.1	0.648	-2.7	i	1.1	-54.2	-49.4	-73.7	-16.0
CC(C)OC(=O)/C(=C\c1ccc2c(c1)c1ccccc1n2C)NC(=O)c1ccccc1	-90.3	nt	1.6	nt	5.5	-11.6	nt	nt	nt
C=CCOc1c(CNc2ccc3[nH]c(=O)[nH]c3c2)cccc1OC	4.2	0.673	1.3	i	0.5	98.8*	-3.9	-0.7	-1.1
Cc1c(Cl)cccc1NC(=O)CC1NCCNC1=O (stereo not drawn)	3.3	0.678	1.4	nt	-4.3	nt	nt	nt	nt
COc1ccc(CCNC(=O)C(=O)NCC2OCCN2S(=O)(=O)c2ccc(C)cc2)cc1 (stereo not drawn)	4.1	0.795	-1.0	i	-9.5	nt	0.6	-1.5	-7.0
Cc1cc(C)cc(C(=O)NCC(=O)OCC(=O)N(C)c2ccccc2)c1	0.8	0.687	1.9	i	-2.9	3.9	-2.9	-2.4	1.0
CCc1ccc(NC(=O)C2CCN(S(=O)(=O)c3ccc4[nH]c(=O)ccc4c3)CC2)cc1	-0.9	0.739	2.3	i	0.1	-5.9	0.2	6.3	1.4
COc1cc(CN2CCNC(=O)C2CC(=O)N2CCCCO2)cc(OC)c1 (stereo not drawn)	2.5	0.693	-1.0	i	1.4	-9.2	-2.0	1.2	-1.2
CCC(C)NC(=O)CSc1nc2c(sc(=S)n2Cc2ccco2)c(=O)n1-c1ccccc1 (stereo not drawn)	6.8	0.69	7.6	nt	-6.3	-8.6	nt	nt	nt
Cc1cc(C)c2oc(C(=O)N(Cc3ccccc3)C3CCS(=O)(=O)C3)cc(=O)c2c1 (stereo not drawn)	-2.9	0.639	-1.4	i	-10.5	-6.0	-16.5	-10.1	-0.3
Cc1cc(C)cc(N(CCC#N)C(=O)COC(=O)c2ccccc2SCC(=O)N2CCCC2)c1	-0.2	0.708	-1.3	i	13.1	-12.5	-1.6	-1.4	3.0
CS(=O)(=O)N1CCN(c2ccccc2NC(=O)c2ccc3ccccc3c2)CC1	2.3	0.751	-0.4	nt	-4.4	-1.8	nt	nt	nt
COc1ccccc1N(CC(=O)N/N=C(\C)c1ccc(F)cc1)S(=O)(=O)c1ccccc1	nt	nt	6.7	i	-17.9	nt	15.6	10.5	3.7
CCN1CCCC1CNC(=O)C1CCN(C(=O)c2cc3sccc3n2Cc2ccc(F)cc2)CC1 (stereo not drawn)	4.1	0.683	5.9	i	14.6	-0.5	2.4	-6.3	1.0
COc1ccc(-n2cnnc2SCC(=O)Nc2cc(C(C)(C)C)nn2-c2ccccc2)cc1	1.6	0.66	0.5	nt	-8.6	nt	nt	nt	nt
CCOC(=O)c1[nH]n(-c2ccc(Cl)cc2)c(=O)c1C	5.1	0.677	-4.9	nt	-2.0	?	nt	nt	nt
Cc1cc(C)c(NC(=O)CN2C(=O)NC3(CCOc4ccccc43)C2=O)c(C)c1 (stereo not drawn)	5.9	0.744	-0.8	nt	-7.9	-12.7	nt	nt	nt
O=C(COC(=O)c1cn(-c2ccccc2)nc1-c1cccs1)NC1CC1	-3.6	0.783	0.2	nt	-18.3	-1.6	nt	nt	nt
O=C(Nc1nccs1)c1ccc(NC(=O)c2ccco2)cc1	3.7	0.656	3.9	nt	-10.3	27.3	nt	nt	nt
Cc1ccc(NC(=O)CSc2n[nH]c(-c3ccncc3)n2)c(C)c1	2.8	0.613	-0.4	i	-6.5	1.1	3.0	8.6	0.3
Cc1cccc(OC(C)C(=O)Nc2ccc(S(=O)(=O)N3CCCC3)cc2)c1 (stereo not drawn)	3.4	0.68	-2.0	i	3.1	4.6	-24.1	-20.9	1.9
CC1CCCCN1C(=O)CSc1nc(N)nc(N)n1 (stereo not drawn)	1.1	0.585	-0.1	nt	1.6	nt	12.6	11.7	4.6
CN(C)c1cccc(C(=O)NCC(c2ccco2)N(C)C)c1 (stereo not drawn)	-15.7	0.695	4.9	i	3.0	nt	15.2	5.5	2.4
COc1cc(OC)cc(C(=O)NCCNC(=O)c2ccco2)c1	2.6	0.71	0.0	nt	-6.9	-0.5	nt	nt	nt

Bioassay records (PubChem BioAssay)
